Rango complex inh: qHTS Assay for Inhibitors of Rango (Ran-regulated importin-beta cargo) - Importin beta complex formation | Importin subunit beta-1 (Homo sapiens), Q14974 | Rango CFP/YFP FRET sensor + importin beta, 45 min | actives 0.031% (n = 340,000) | Potency, µM (doses to about 92.2 µM), inactives show at the highest dose inhibition of complex formation; active = rising FRET ratio curve, often small or poorly fitted; inconclusive = mostly compound fluorescence or quenching in the first reads; inactive = flat curves in all reads;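 further: potency means the concentration at half of the fitted maximal effect; 0% = DMSO wells and 100% = buffer wells lacking importin beta; nearly all actives have a fitted effect of over 15% in size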
Target sequence (Q14974 whole entry, looked up): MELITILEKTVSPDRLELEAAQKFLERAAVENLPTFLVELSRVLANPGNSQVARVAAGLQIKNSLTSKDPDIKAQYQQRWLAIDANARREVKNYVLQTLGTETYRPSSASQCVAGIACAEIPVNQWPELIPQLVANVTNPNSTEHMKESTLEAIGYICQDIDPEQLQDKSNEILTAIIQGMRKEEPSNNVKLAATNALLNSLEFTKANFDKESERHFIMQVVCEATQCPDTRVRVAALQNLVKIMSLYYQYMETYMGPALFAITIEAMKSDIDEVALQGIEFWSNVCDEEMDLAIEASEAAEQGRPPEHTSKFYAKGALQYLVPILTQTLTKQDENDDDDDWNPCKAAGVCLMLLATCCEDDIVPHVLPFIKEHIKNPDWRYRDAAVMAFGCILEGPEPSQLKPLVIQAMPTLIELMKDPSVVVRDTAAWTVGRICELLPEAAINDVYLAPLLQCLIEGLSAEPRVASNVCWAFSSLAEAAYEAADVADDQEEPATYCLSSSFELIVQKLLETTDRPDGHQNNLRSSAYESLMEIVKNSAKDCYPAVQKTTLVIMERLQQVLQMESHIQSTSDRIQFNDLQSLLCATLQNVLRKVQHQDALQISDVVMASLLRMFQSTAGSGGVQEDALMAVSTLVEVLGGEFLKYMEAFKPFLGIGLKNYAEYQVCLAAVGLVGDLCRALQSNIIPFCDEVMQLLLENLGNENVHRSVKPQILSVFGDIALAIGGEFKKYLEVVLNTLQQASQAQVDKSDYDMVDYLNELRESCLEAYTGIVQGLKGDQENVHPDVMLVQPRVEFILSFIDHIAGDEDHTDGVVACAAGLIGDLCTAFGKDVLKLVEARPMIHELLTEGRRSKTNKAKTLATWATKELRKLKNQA
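Inhibition scored from the CFP 486 nm/YFP 530 nm FRET ratio 45 min after adding 0.125 microM importin beta to 50 nM Rango biosensor preincubated 5 min with compound (room temperature, PBS with DTT, Tween-20, BSA). No-importin wells as positive control.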
GLA inh pH 4.5: qHTS Assay for Inhibitors of Human alpha-Galactosidase at pH 4.5 | Alpha-galactosidase A (Homo sapiens), P06280 | 230,000 tested, under 10 active | purified enzyme, 4-MU-alpha-Gal fluorescence, pH 4.5 | activity change, negative = inhibition, % at 105 µM | AID 1467, 2008; inconclusive = small, poorly fitted or top-dose-only inhibition, or a rising curve; inactive = flat fitted curve, though single readings scatter; no compound was filed as active;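 further: 0% = full activity with enzyme and -100% = basal without enzyme; dose as in the result columns while the protocol names 77 µM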
miR-21 FLuc: qHTS Assay for Modulators of miRNAs and/orActivators of miR-21 | HeLa miR-21 FLuc reporter, luciferase, 48 h | Potency, µM (doses to about 38.3 µM), without a hit: top-dose reporter change, positive = more light | 340,000 tested, under 10 active; active = well fitted rising curve with a large enough effect; inconclusive = small, poorly fitted or top-dose-only effect; inactive = no such curve, though single readings can be large or run the other way;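 further: % of control where 0% means no effect; miR-21 action dims this reporter so a rising signal means less miR-21 action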
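HeLa cells endogenously expressing miR-21, stably carrying CMV-driven firefly luciferase with a downstream miR-21 binding site, 2000 cells/well. Titrations up to approximately 40 uM, 48 hours; luciferase luminescence read.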
Rango dissoc inh: qHTS Assay for Inhibitors of RanGTP induced Rango (Ran-regulated importin-beta cargo) - Importin beta complex dissociation. Potency, µM (doses to about 46.1 µM), for inactives: at the top dose activity change, negative = inhibition. actives 0.071% (n = 340,000). Snurportin-1 (Homo sapiens) + GTP-binding nuclear protein Ran (Homo sapiens) + Importin …. Biochemical FRET Rango-importin beta, RanGTP-induced dissociation. AID 540253, 2011; active means falling FRET ratio curve, often poorly fitted, with flat reads before Ran was added; inconclusive means other falling curves, or compound fluorescence or quenching; inactive means flat or rising ratio curve;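 further: potency means the concentration at half of the fitted maximal effect; % of control where 0% means no effect; nearly all actives have a fitted effect of over 45% in size; -100% = wells without RanGTP and RCC1; the record marks most hits as doubtful in a second field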
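Recombinant Rango FRET biosensor (EYFP–snurportin 1 IBB–cerulean CFP10) at 0.1 uM premixed with 0.25 uM importin beta in PBS, 1 mM DTT, 0.02% Tween-20, 0.1% BSA. Compound added 5 min; RanGTP-RCC1 (0.6 uM Ran, 2 mM GTP, 0.2 uM RCC1) then triggers release, read at 45 min.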
An asterisk follows results filed as active; ? = inconclusive; nt = no result given; & = joins results of further samples; [ ] = another dose, or the depositor's remark. Only part of the results is shown; the hit share may differ from the screen's.

Value order: Rango complex inh	GLA inh pH 4.5	miR-21 FLuc	Rango dissoc inh
> CC1=C(C(=O)OCc2ccc3c(c2)OCO3)C(c2ccccc2OCc2ccccc2)NC(=O)N1 (stereo not given)
    ?	-10	24%	2%
> CC1(C)Cc2cccc(OCC(=O)N3CCN(c4ccccc4F)CC3)c2O1
    -1.2%	nt	nt	-18%
> CCN1C(=O)[C@H]2[C@@H](c3ccc(-c4ccc(F)cc4)c(OC)c3)N[C@@](C)(C(=O)OC)[C@H]2C1=O
    -4.1%	nt	nt	-7%
> C=CCNC(=O)C1CC(=O)N(c2ccc(OCC(=O)Nc3ccc(Cl)c(C(F)(F)F)c3)cc2)C1 (stereo not given)
    -2.7%	2	2%	-12%
> COc1ccc(OC)c(CC(NC(C)=O)C(=O)NC2CCN(c3nc(OC)nc(OC)n3)CC2)c1 (stereo not given)
    5.2%	5	0%	7%
> Cc1cc(C)c(S(=O)(=O)NCCSCc2ccco2)c(C)c1
    0.6%	nt	nt	-15%
> CNC(=O)N(C1=NCC(C)S1)c1ccc(F)cc1F (stereo not given)
    2.5%	0	-5%	2%
> CCC(=O)N1CCc2cc(S(=O)(=O)CCC(=O)NC3CCCCC3)ccc21
    6.0%	nt	0%	8%
> Cc1ccc(C2CC(C(F)F)n3ncc(C(=O)Nc4cnn(Cc5ccccc5C)c4)c3N2)cc1 (stereo not given)
    -5.4%	0	9%	5%
> CCCCC(CC)C(=O)Nc1ccc(S(=O)(=O)Nc2nccs2)cc1 (stereo not given)
    -3.4%	3	2%	11%
> CC(C)=CCCC(C)CN1CCC(O)CC1 (stereo not given)
    -2.0%	17	-6%	2%
> COc1ccc(OCCOC(=O)CN2C(=O)NC3(CCCC3)C2=O)cc1
    -2.3%	nt	nt	-9%
> CCn1c2ccccc2c2cc(NC(=O)CC(C)=O)ccc21
    -0.4%	1	-5%	1%
> COC(=O)c1cc(NC(=O)CSC2=NCCS2)cc(C(=O)OC)c1
    0.4%	-3	-2%	37%
> CCOc1cc(C2C3=C(CCCC3=O)N(CCC(=O)O)C3=C2C(=O)CCC3)ccc1OS(=O)(=O)c1ccc(C)cc1
    ?	?	-3%	?
> COc1ccc(NC(=O)CC(Cc2ccccc2)C(=O)O)cc1 (stereo not given)
    4.5%	-5	-7%	-18%
> O=C(CN1C(=O)/C(=C/c2ccco2)SC1=S)Nc1ccc(C(=O)O)c(O)c1
    ?	nt	1%	-19%
> CCOc1cc(C(=O)Nc2ccc(S(=O)(=O)Nc3nnc(CC)s3)cc2)cc(OCC)c1OCC
    -1.1%	nt	-1%	0%
> NC(=O)c1ccc[n+](Cc2cccc3ccccc23)c1
    -2.2%	0	-4%	-10%
> CC(=O)Nc1ccc(Nc2cc(N(C)C)c3nonc3c2[N+](=O)[O-])cc1
    0.4%	nt	0%	-3%
> Cc1cc(OCc2ccc(F)cc2)nc(-c2ccccc2O)n1
    -0.4%	-2	-5%	15%
> CC(CC(=O)NC1CCSC1=O)c1ccccc1 (stereo not given)
    -5.3%	-3	-6%	-2%
> Cc1oc(-c2ccccc2Cl)nc1CS(=O)(=O)CC(=O)NCCN1CCOCC1
    -1.7%	nt	0%	13%
> Cc1noc(C)c1CSCC(=O)N(C)CC(=O)Nc1ccccc1C(F)(F)F
    0.6%	nt	nt	43%
> CC(Sc1nnc(-c2ccccc2)c(-c2ccccc2)n1)C(=O)N1CCc2ccccc21 (stereo not given)
    -4.0%	-5	0%	0%
> COc1cccc(-c2cc(C(=O)N/N=C/c3ccco3)c3ccccc3n2)c1
    -0.3%	nt	1%	1%
> Clc1ccccc1CN1CCN(/N=C/C=C\c2ccco2)CC1
    -1.8%	-7	-24%	0%
> CCOC(=O)c1cnc2c(cnn2C)c1Cl
    1.1%	5	2%	25%
> COc1cccc(NC(=O)CSc2ccc3nnc(-c4ccncc4)n3n2)c1
    -3.4%	-1	0%	?
> COc1cccc(N(C(=O)c2ccco2)C(C(=O)NC2CCCC2)c2ccc(N(C)C)cc2)c1 (stereo not given)
    2.0%	-21	-24%	10%
> COc1cccc(-c2nnc(NC(=O)c3ccc(S(=O)(=O)N(CC(C)C)CC(C)C)cc3)o2)c1
    4.1%	-17	-9%	-3%
> CCCc1ccc2oc(C(=O)N3CCN(CC(=O)NC(C)C)CC3)c(C)c2c1
    2.1%	nt	3%	-6%
> COC(=O)c1c(-c2ccc(Br)cc2)csc1NC(=O)Cc1ccc(OC)c(OC)c1
    0.4%	7	13%	1%
> Nc1sc2c(c1C(=O)NC1CCS(=O)(=O)C1)CCC2 (stereo not given)
    ?	4	-3%	?
> Cc1cc(-c2ccccc2)c2ccc(NC(=O)C(C)(C)C)nc2n1
    0.5%	nt	5%	2%
> N=C1/C(=C\c2ccc(SCc3ccccc3)o2)C(=O)N=C2SC(CC(=O)N3CCOCC3)=NN12
    ?	-11	0%	?
> COc1ccc(NC(=O)C(=O)NCC2CCCN2S(=O)(=O)c2cccs2)cc1 (stereo not given)
    -2.7%	nt	nt	10%
> Cc1ccc(C(=O)Nc2ccccc2N2CCCC2)cc1
    -5.0%	nt	-20%	20%
> COc1ccc(NC(=O)CC2SC(=Nc3ccccc3)NC2=O)cc1 (stereo not given)
    -1.4%	-3	1%	0%
> O=c1c2c3n(c(=O)nc2[nH]n1-c1ccccc1)CCCCC3
    0.4%	4	-1%	-10%
> Cc1cc(C)nc(SCC(=O)Nc2ccc(S(=O)(=O)Nc3nccs3)cc2)n1
    3.1%	-8	-12%	?
> CC(=O)c1cccc(NC(=O)c2onc(C)c2Cl)c1
    0.0%	-1	-27%	6%
> COCCCNC(=O)C[C@H]1C[C@H](C(=O)N2CCOCC2)[C@@]2(CCC3CCCC3)c3[nH]c4cc(CCC(=O)N(C)C)ccc4c3CCN2C1=O
    -2.4%	nt	nt	-12%
> COc1ccc(S(N)(=O)=O)cc1C(=O)NCCCN1CCN(c2ccccc2OC)CC1
    -4.6%	-3	-8%	-14%
> COc1ccccc1C(=O)N1CCCC1(C#N)c1ccccc1 (stereo not given)
    3.6%	4	-5%	-6%
> Cc1ccc(NC(=S)N/C(=N/S(=O)(=O)c2ccccc2)c2ccccc2)cc1
    0.2%&0.7%	-2	-46%	-25%&18%
> Cc1nn(C)cc1C(=O)NNC(=S)Nc1ccccc1
    -2.7%	2	-42%	0%
> COc1cc2nc(CN(CCC(C)C)Cc3nc4cc(OC)c(OC)cc4c(=O)[nH]3)[nH]c(=O)c2cc1OC
    2.8%	8	-1%	?
> COc1ccc(CC(=O)Nc2cccc(SC)c2)cc1
    2.7%	3	-16%	7%
> CCOC(=O)c1nncc(-c2ccccc2)n1
    5.9%	nt	nt	-11%
> CCOc1ccc(C(C)NC(=S)NC2CCCCC2)cc1OCC (stereo not given)
    -0.2%	-11	0%	5%
> O=c1c2ccc(Cl)cc2[nH]c(=S)n1CCCN1CCOCC1
    4.8%	-22	-11%	3%
> CCN(CC)S(=O)(=O)c1ccc(C)c(NC(=O)CNc2cccc(S(=O)(=O)N3CCCC3)c2)c1
    1.2%	nt	nt	9%
> O=C(/C=C/Nc1ccc(S(=O)(=O)Nc2ncccn2)cc1)c1ccc(Cl)c(Cl)c1
    ?	-6	-10%	?
> COc1cc(C)c(C)cc1S(=O)(=O)N1CCCCC1c1cccnc1 (stereo not given)
    4.3%	1	11%	4%
> COc1ccc(S(=O)(=O)N2CCCCCC2)cc1C(=O)NCc1ccccc1Cl
    3.8%	nt	nt	0%
> Cc1ccc(SCc2cn3cc(Cl)ccc3n2)cc1
    0.5%	1	-58%	-1%
> CC1CCCCN1S(=O)(=O)c1ccc(C(=O)Nc2nnc(C3CC3)o2)cc1 (stereo not given)
    -1.6%	nt	16%	11%
> O=C(Nc1cccc(O)c1)c1ccccc1
    -1.5%	-3	-25%	3%
> O=C(O)CC1C(=O)NCCN1Cc1cccs1 (stereo not given)
    -1.2%	-1	2%	-5%

More entries follow.
Value order: Rango complex inh	GLA inh pH 4.5	miR-21 FLuc	Rango dissoc inh
> COc1ccc(NC(=O)CSc2nnc(Cn3cnc4ccccc43)o2)cc1
    -1.9%	2[21.1 µM]	-1%	-6%
> Cc1ccc(NC(=O)CC(O)(C(F)(F)F)C(F)(F)F)c(Br)c1
    0.6%	-5	-3%	-1%
> Cc1cccc(NS(=O)(=O)c2cc3c(cc2C)N(C)CCO3)c1
    -0.1%	nt	0%	-16%
> COc1ccc(CCNc2ncnc3cc(OC)c(OC)cc23)cc1OC
    0.1%	-5	22%	-3%
> O=C(C[C@@H]1NS(=O)(=O)OC2CCCCC21)c1ccccc1 (stereo not given in full)
    1.1%	nt	-3%	6%
> O=C(CC1C(=O)NCCN1C(=O)Nc1ccccc1)Nc1cccc(C(F)(F)F)c1 (stereo not given)
    1.6%	-8	-9%	9%
> Cc1cc(C)cc(OCC(=O)N/N=C/c2ccco2)c1
    5.8%	5	-7%	3%
> O=c1cc(O)c2c(=O)n(-c3ccccc3)c3c(c2o1)CCCCCC3
    0.8%	-3	-12%	-9%
> Cc1cc(C)c2cc(CN(CCCO)S(=O)(=O)c3ccccc3F)c(=O)[nH]c2c1
    -0.6%	nt	-1%	16%
> COC(=O)CSC1=C(C#N)C(c2ccc(C)cc2)C2=C(CCCC2=O)N1 (stereo not given)
    0.3%	-11	-1%	-13%
> NS(=O)(=O)c1ccc(NC(=O)COC(=O)c2ccco2)cc1
    2.5%	-5	-2%	-4%
> Cc1ccc(C(=O)N/C(=C/c2cccc([N+](=O)[O-])c2)C(=O)NCC2CCCO2)cc1 (stereo not given)
    -1.6%	0	0%	2%
> CCc1nc(SCC(=O)NNC(=O)C2CCCCC2)c2ccccc2n1
    -1.8%	8	-3%	-4%
> Cc1ccc(N2C(=O)CC(N(O)C3CC(=O)N(c4ccc(C)cc4)C3=O)C2=O)cc1 (stereo not given)
    2.2%	0	-3%	4%
> O=C(COC(=O)c1cc(Cl)ccc1O)Nc1cc(C(F)(F)F)ccc1N1CCOCC1
    0.1%	nt	nt	24%
> Cc1ccc(Cl)cc1Nc1nc(-c2sc(NC(=O)C(C)(C)C)nc2C)cs1
    -0.8%	-8	-1%	-15%
> CCOc1ccccc1CNC(=O)Cn1ccc2cc(S(=O)(=O)N3CCC(C)CC3)ccc21
    ?	nt	13%	0%
> Cc1cccc(C)c1OCc1cc(C(=O)NCc2ccc(Cl)s2)no1
    6.7%	nt	-3%	-1%
> O=C(COC(=O)c1cccc(S(=O)(=O)N2CCOCC2)c1)Nc1ccc2c(c1)OCO2
    0.4%	1	-2%	-11%
> CCc1nnc(NC(=O)CN2CCN(Cc3ccccc3C)CC2)s1
    2.3%	nt	-7%	0%

Whole records as entered above. Screens in order: Rango complex inh, GLA inh pH 4.5, miR-21 FLuc, Rango dissoc inh
COc1ccc(NC(=O)C(=O)NCC2CCCN2S(=O)(=O)c2cccs2)cc1 (stereo not given) reads -2.7%, nt, nt, 10%
Cc1nn(C)cc1C(=O)NNC(=S)Nc1ccccc1 reads -2.7%, 2, -42%, 0%
COc1cc(C)c(C)cc1S(=O)(=O)N1CCCCC1c1cccnc1 (stereo not given) reads 4.3%, 1, 11%, 4%

The listing continues.
Value order: Rango complex inh	GLA inh pH 4.5	miR-21 FLuc	Rango dissoc inh
> COc1ccc(Nc2nc(-c3cccs3)cs2)cc1
    0.8%	6	-46%	-2%
> Cc1ccc(S(=O)(=O)NCCC(=O)N2CCOCC2)cc1C
    7.2%	nt	nt	-8%
> CCOc1ccc(-c2c(C(=O)N/N=C/c3ccccc3)nnn2-c2nonc2N)cc1
    0.5%	-3	1%	21%
> COc1ccc(N(CC(=O)N2CCCCCC2)S(C)(=O)=O)cc1Cl
    1.7%	nt	2%	1%

Compound activity as filed in PubChem BioAssay.
